Vaccinia Venus – inhibitors of vaccinia virus (Venus reporter). Vaccinia virus Venus reporter expression, fluorescence. Potency, µM (titrated, usually from 36.5 µM), without a hit: at the top dose activity change, negative = inhibition, hits mostly inhibitors. actives 0.46% (n = 330,000); active means well fitted inhibition curve with a large enough effect; inconclusive means small, poorly fitted or top-dose-only effect; inactive means no such curve, though single readings can be large or run the other way; tested in A549 cells; note: nearly all actives have a fitted effect of over 30% in size; inactives centre near -10
Vaccinia mCherry – inhibitors of vaccinia virus infection (mCherry reporter signal). Potency, µM (top dose mostly 36.5 µM), for inactives: at the top dose activity change, negative = inhibition, usual class: inhibitors. Vaccinia virus mCherry reporter infection, fluorescence; about a quarter of the inactives have no number. actives 0.63% (n = 310,000); active = well fitted inhibition curve with a large enough effect; inconclusive = small, poorly fitted or top-dose-only effect; inactive = no such curve, though single readings can be large or run the other way; tested in A549 cells; note: nearly all actives have a fitted effect of over 35% in size; inactives centre near -10
* = called active by the depositor; i = inactive; ? = inconclusive; & = joins results of further samples; [ ] = another dose, or the depositor's remark. % is set by controls: 0 for no effect and ±100 for the full control effect; potency is the fitted concentration of half-maximal effect.

SMILES	Vaccinia Venus	Vaccinia mCherry
C[C@H](NC(=O)c1nc[nH]c1C(=O)NCC(=O)OC(C)(C)C)C(=O)OC(C)(C)C	?	-6%
COCCn1c(=NC(=O)c2ccc(S(=O)(=O)N3CCc4ccccc4C3)cc2)sc2cc(S(N)(=O)=O)ccc21	-20%	0%
Cc1ccc(S(=O)(=O)N2CCN(c3ccc([N+](=O)[O-])c4cccnc34)CC2)cc1	-19%	-29%
Cc1cc(NNC(=O)c2ccccc2)nc(NNC(=O)c2ccccc2)n1	-9%	-20%
CN(C)CCN(Cc1cc2cc3c(cc2[nH]c1=O)OCO3)C(=S)NCC1CCCO1 (stereo unspecified)	-3%	-4%
CCN(CCCNC(=O)c1nn(-c2ccc(C)cc2)c(=O)c2c1c1ccccc1n2C)c1cccc(C)c1	-22%	-22%
CCCCOc1nnc(-c2ccc(OCC)cc2)c2ccccc12	-25%	-24%
CC(=O)Nc1cncc(-c2ccccc2C(C)=O)n1	-3%	32%[activator]
CCCCOc1ccc(-c2nnn(CC(=O)NCc3ccco3)n2)cc1	?	-24%
O=C(CSc1nnnn1C1CCCC1)N1CCCc2ccccc21	-8%	-4%

Taken from above.
In Vaccinia mCherry, Cc1ccc(S(=O)(=O)N2CCN(c3ccc([N+](=O)[O-])c4cccnc34)CC2)cc1 is entered as -29%
In Vaccinia mCherry, C[C@H](NC(=O)c1nc[nH]c1C(=O)NCC(=O)OC(C)(C)C)C(=O)OC(C)(C)C is entered as -6%
In Vaccinia mCherry, CCCCOc1ccc(-c2nnn(CC(=O)NCc3ccco3)n2)cc1 is entered as -24%
In Vaccinia Venus, CCN(CCCNC(=O)c1nn(-c2ccc(C)cc2)c(=O)c2c1c1ccccc1n2C)c1cccc(C)c1 is entered as -22%
In Vaccinia Venus, O=C(CSc1nnnn1C1CCCC1)N1CCCc2ccccc21 is entered as -8%

Going on with the list:
SMILES	Vaccinia Venus	Vaccinia mCherry
CSCC[C@H](NC(=O)OC(C)(C)C)c1nnc(SCC(N)=O)o1	-23%	-12%[1.46 µM]
Cc1csc(=O)n1CC(=O)OC(C)C(=O)Nc1cccc(Cl)c1 (stereo unspecified)	-8%	-16%
COC(=O)c1cccc(NC(=O)c2ccc[n+]([O-])c2)c1	-6%	-19%
Cc1ccc(Cl)cc1NC(=O)Cn1c(=O)c(CNc2ccccc2)cc2cc3c(cc21)OCCO3	6%	-3%
CC(C)OCCCn1c(=NC(=O)c2cccs2)c(C#N)cc2c(=O)n3ccccc3nc21	1%	i
COc1ccc(-c2coc3cc(O)ccc3c2=O)c(O)c1O	-6%	i
Cc1cccc(NC(=O)CSc2nnc(CSc3nc(C)cc(C)n3)o2)c1	-2%	-4%
CCC(=O)N1CCCc2cc(S(=O)(=O)Nc3ccc(C)c(C)c3)ccc21	-9%	0%
CC1SC(C)C(=O)N(CC(=O)Nc2ccc3c(c2)OCO3)C1=O (stereo unspecified)	6%	i
Cc1cc(=O)oc2cc(OCc3ccc(C(=O)N4CCN(c5ccccc5)CC4)cc3)ccc12	-17%	-25%
O=S(=O)(Nc1nc2ccccc2nc1Cl)c1ccc(Br)cc1	-23%	-25%
CCC(CC)CN1CCC(CN2C(=O)C(=O)NC[C@@H]2CC(C)C)CC1	-8%	28%
COc1ccccc1CNC(=O)CN(c1ccccc1OC)S(C)(=O)=O	-13%	-14%
O=C(Cc1ccc(F)cc1)NC1CCCCCC1	-17%	-17%
CCn1c(-c2cc(-c3cc(C)ccc3C)nc3ccccc23)n[nH]c1=S	-4%	i
Cc1cccc(-c2nc(CSCC(=O)N3CCN(c4cccc(C)c4C)CC3)c(C)o2)c1	-10%	-8%
COCc1ccc(-c2c(-c3cccc(OC)c3)sc3ccc(OC)cc23)cc1	8%	i
O=[N+]([O-])c1cccc(-c2cn(-c3ccccc3)c(=S)[nH]2)c1	-12%	0%
Cc1cc(C(=O)N2CCC2(C)C(=O)NS(=O)(=O)c2ccc(F)cc2F)nn1C (stereo unspecified)	16%	0%
CCc1cc(=O)[nH]c(SCc2nc(-c3ccc(C(F)(F)F)cc3)no2)n1	-10%	-8%
CCn1nc(C)c(/C=N/NC(=O)Cn2cncn2)c1C	-4%[7.34 µM]	-20%[7.34 µM]
O=C(O)COc1ccc(Cl)cc1Cl	-5%&0%	-12%
O=C(Nc1ccc2c(c1)OCO2)c1cc2ncc(Br)cn2n1	-10%	-17%
Cc1ccc(-c2nnc(-c3ccccc3)o2)cc1Br	-3%	-3%
CCOC(=O)/C(C#N)=C/c1ccc(N2CCN(Cc3ccccc3)CC2)cc1	-1%	-12%
O=C(CCc1nnc(Cc2cccc(C(F)(F)F)c2)o1)NC1CC1	-5%	i
COc1ccc(NS(=O)(=O)c2cccc(C(=O)NNC(=O)NCCCl)c2)cc1	-1%	7%
Cc1c(C(=O)NCCSCc2ccc(F)cc2)cnn1-c1ccc(Cl)cc1	-14%	-4%
O=C(N/N=C1\CCCc2oc(C(=O)O)cc21)c1ccccc1	-14%	-1%
Cc1nn(Cc2cccc(C(=O)O)c2)c(C)c1[N+](=O)[O-]	-2%	i
CCC(NC(=O)c1ccccc1NC(=O)c1ccccc1)C(=O)NNC(=O)CSc1nc2ccccc2o1 (stereo unspecified)	?	-31%
Cc1nn(-c2ncc(C(F)(F)F)cc2Cl)c(=O)n1-c1ccc(F)cc1	-2%	-7%
O=c1c2cc3c(cc2nc2sc(Nc4ccc(F)cc4F)nn12)OCO3	-12%	-4%
Cc1ccc(C)c2[nH]c(=O)c(CCNC(=O)c3ccc4c(c3)OCO4)cc12	-11%	-9%
CCOc1ccc(S(=O)(=O)Nc2cccc(C(=O)NCC3(N4CCCCC4)CCCCC3)c2)cc1	?	-20%
O=C(O)CCc1nnc2cnc3ccccc3n12	1%	-8%
COCCCNC(=O)c1ccc(CS(=O)(=O)c2ccc(OC)cc2)o1	-2%	-16%
Cc1ccc2nc(N3C(=O)CNC3=S)sc2c1	-27%	-14%
CC(Cc1cccs1)NC(=S)Nc1ccc(F)cc1 (stereo unspecified)	-13%	-8%
COc1ccc(C(=O)NCc2nnc(SCC(=O)N3CCc4ccccc43)n2C2CCCCC2)cc1	0%	-7%
COc1ccc(CCN2CC(C(=O)NCc3cnn(C)c3)CCC2=O)cc1 (stereo unspecified)	1%	i
O=C(CNc1ccc2ccccc2c1)NNC1=NCCC1	-17%	-11%
N#C/C(=C/Nc1ccccc1F)S(=O)(=O)c1ccc(Cl)cc1	-10%	-2%
CCC(=O)N1CCc2cc(Br)cc(S(=O)(=O)CCC(=O)NCc3ccco3)c21	-18%	i
CC(C)(C)c1cc(NC(=O)CCl)n(-c2ccccc2)n1	-4%	-2%
Cc1cccc(C)c1OCC(=O)Nc1c(C(=O)c2ccccc2)oc2ccccc12	1%	-4%
CC(=O)c1ccc(N(C(=O)Cn2nnc3ccccc32)C(C(=O)NCc2ccccc2)c2ccccn2)cc1 (stereo unspecified)	-11%	-15%
Cc1cc(C)c(Cn2c3ccccc3c3cnn(CC(=O)NCCC4=CCCCC4)c(=O)c32)c(C)c1	-26%	-27%
COc1ccc(OCCC(=O)NCCN2CCOCC2)cc1	-15%	3%
CCOc1cc(C(=O)OCc2cc(=O)n3nc(CC)sc3n2)cc(OCC)c1OCC	-8%	20%
The list goes on:
SMILES	Vaccinia Venus	Vaccinia mCherry
C(=N\Nc1nc(N2CCCCCC2)nc(N2CCCCCC2)n1)/c1ccccc1	-9%	i
CCOC(=O)Cn1c(=N)n(Cc2ccc(C(C)(C)C)cc2)c2ccccc21	-2%	-13%
CCN(CC(=O)Nc1c(F)cccc1F)C(=O)C1CCN(C(=O)c2ccc(Cl)cc2)CC1	-15%	i
Cn1c(C(=O)NCCc2ccccc2)cc2c(=O)n3ccccc3nc21	-7%	-7%
COc1ccccc1-c1noc(CCC(=O)Nc2cccc(C(F)(F)F)c2)n1	?	?
Cc1ccc(C2=NOC(C)(c3nnc(-c4cccc(Cl)c4)o3)C2)cc1 (stereo unspecified)	-5%	i
CCCc1cc(=O)[nH]c2nnc(SCC(=O)NC3CCCC3)n12	-14%	i
O=C(CSCc1ccccc1)Nc1ccc(Cl)cn1	9%	-5%
COc1cc(C)c(Cl)cc1S(=O)(=O)NCc1ccccn1	2%	i
CC(C)C1C(=O)N(Cc2cn(CC3CCCCC3)nn2)CCS(=O)(=O)N1Cc1ccc(-c2ccccc2)cc1 (stereo unspecified)	?	-21%

Whole records from above:
Cn1c(C(=O)NCCc2ccccc2)cc2c(=O)n3ccccc3nc21 in the list: Vaccinia Venus = -7%; Vaccinia mCherry = -7%
O=C(CSCc1ccccc1)Nc1ccc(Cl)cn1 in the list: Vaccinia Venus = 9%; Vaccinia mCherry = -5%

Following part.
SMILES	Vaccinia Venus	Vaccinia mCherry
COc1ccc(OC)c(NC(=O)Nc2cccc(OCc3cc(=O)n4cc(C)ccc4n3)c2)c1	-6%	-14%
COc1ccc2c(c1)c1c(c(=O)n(Cc3ccccc3)c(=O)n1CC(=O)NCc1ccccc1)n2C	-9%	-3%
Cc1ccc2nc(COc3ccccc3NC(=O)COc3ccc(F)cc3)cc(=O)n2c1	2%	-6%
CC(C)(C)n1nnnc1C(c1ccccc1F)N(Cc1ccco1)CC1CCCO1 (stereo unspecified)	0%	-3%
Cc1cccc(NC(=O)Cn2c(=O)n(CCCS(=O)(=O)C3CCCCC3)c(=O)c3ccccc32)c1	-5%	-10%
O=C(c1ccc2c(=O)n(CCc3ccccc3)c(=O)[nH]c2c1)N1CCN(c2ccc(F)cc2)CC1	0%&-15%	?
O=C(NCCn1cc(SCc2ccc(C(F)(F)F)cc2)c2ccccc21)c1cccs1	-28%	?
CCC(=O)N1CCc2cc(Br)cc(S(=O)(=O)CCC(=O)NCCc3ccc(Cl)cc3)c21	-5%	-13%
CCOc1cccc(OCCn2cnc3ccccc3c2=O)c1	-4%	-5%
CC1=C(c2ccc(C)c(C)c2)S(=O)(=O)N(Cc2ccc(C(=O)NCc3ccccc3F)cc2)C1=O	-13%	-9%

3 structures out of the list, sorted by formula weight, low to high.
SMILES	Vaccinia Venus	Vaccinia mCherry
CC(C)(C)n1nnnc1C(c1ccccc1F)N(Cc1ccco1)CC1CCCO1 (stereo unspecified)	0%	-3%
O=C(c1ccc2c(=O)n(CCc3ccccc3)c(=O)[nH]c2c1)N1CCN(c2ccc(F)cc2)CC1	0%&-15%	?
Cc1cccc(NC(=O)Cn2c(=O)n(CCCS(=O)(=O)C3CCCCC3)c(=O)c3ccccc32)c1	-5%	-10%

The list goes on:
SMILES	Vaccinia Venus	Vaccinia mCherry
O=C1NCCNC(=O)c2ccccc2OCCOc2ccccc21	-11%	15%
O=C(c1ccccc1)c1coc2ccc(O)c(Cl)c12	-14%	-3%
COc1cc(OC)c(N(C)C(=O)c2cc3c(s2)-c2ccccc2OC3)cc1Cl	9%	0%
COc1ccc(CNC(=O)Nc2ccccc2)cc1	0%	1%
COc1ccccc1CCNC(=O)C(C)n1nc(C)c2c(C)n(-c3ccccc3)nc2c1=O (stereo unspecified)	-9%[7.34 µM]	-8%[7.34 µM]
CC(CC(=O)N1CCN(c2ccccc2F)CC1)c1ccccc1 (stereo unspecified)	-17%	i
CC(C)c1ccc(S(=O)(=O)NCc2nc3cccnc3n2Cc2ccc(F)cc2)cc1	-10%	-9%
CN(C)c1ccc(C=Nc2ccccc2)cc1	-5%	?
CCN(CC)S(=O)(=O)c1ccc(F)c(C(=O)NCCCN2CCOCC2)c1	-3%	0%
Cc1ccc(C2SCC(=O)N2c2ccccc2)cc1 (stereo unspecified)	-7%	-10%
CC(=O)Nc1ccc(S(=O)(=O)NCc2ccc(C(=O)NCCN3CCCCCC3)cc2)cc1	-5%	-11%
NC(=O)CSc1nnc(-c2ccccc2F)n1C1CC1	2%	11%
CCCNC(=O)C1(C)CCN(C(=O)c2sccc2C)C1 (stereo unspecified)	0%	-3%
COc1cc(NC(=O)CCCN2C(=O)NC(C)(C)C2=O)cc(OC)c1	-7%	-15%
C=CCc1cccc2cc(NC(C)=O)c(=O)oc12	-25%	?
CCCC/C(C)=N/NC(=O)Nc1ccccc1	-20%	-11%[1.46 µM]
CCc1cccc(C)c1NC(=O)c1cc(S(=O)(=O)NCc2ccccc2Cl)ccc1F	?	?
Cc1cc(OCC(=O)N(C(C)C)C(C)C)cc(C)c1Br	-12%	-17%
CCC12C(=O)C(CC)(C(c3ccccc3)=C1c1ccccc1)[C@@H]1C(=O)N(c3ccccc3)C(=O)C12 (stereo partly specified)	-11%	-12%
COc1ccc(NC(=O)CSCC(=O)N(C)Cc2ccc3c(c2)OCCO3)cc1	-8%	-20%
COc1ccccc1/C=C/C=C1\Oc2c(ccc(O)c2CN2CCN(CCO)CC2)C1=O	37%[activator]	-6%
Cc1cccc(C(=O)OCC(=O)N2CC(=O)Nc3ccccc32)c1C	-16%	-19%
O=C(C[n+]1ccccc1)Nc1ccccc1C(=O)O	-7%	i
Nc1c(C(=O)Nc2ccc3c(c2)OCCO3)nnn1Cc1ccccc1Cl	-23%	-2%
O=C(CNc1cccc2ccccc12)N/N=C/c1ccccn1	-9%	?
C/C(=N\NP(=S)(c1ccccc1)c1ccccc1)c1ccc(O)cc1O	-6%	?
O=C(C[C@H]1C/C=C\CC[C@H](Cc2ccc(F)cc2)C(=O)OC[C@@H](Cc2c[nH]c3ccccc23)NC1=O)NCCO	-17%	-19%
Cc1ccc2oc(C(=O)Nc3nnc(CC(C)C)s3)cc(=O)c2c1	-1%	-14%
CC(=O)c1ccc(N2Cc3ccccc3C2)cc1	-15%	i
CC12CCC(C(=O)N3CCN(c4ncccn4)CC3)(c3nc4ccccc4nc31)C2(C)C (stereo unspecified)	-20%	-20%
CC(C)N1CC(=O)N2CSCC2C1=O (stereo unspecified)	5%	5%
COc1cc2c(cc1OC)CN(Cc1ccc(C)cc1)CC2	-6%	i
CSc1ccc(CN2CCN(Cc3ccc([N+](=O)[O-])cc3)CC2)cc1	-25%	-14%
COc1ccc(NC(=O)CO/N=C2\CCCc3nonc32)cc1	-10%	i
